GIV-Gai inh: inhibitors of GIV peptide binding to Galpha-i3, primary screen, biochemical, fluorescence polarization, FITC-GIV GBA peptide, rat Galphai3. hit rate 0.42% among 210,000. percent of control (FP), % (test concentration not listed). 90 min; active compounds read low; scaled: aluminum fluoride 0%, vehicle 100%. Guanine nucleotide-binding protein G(i) subunit alpha-3 (Rattus norvegicus), P08753;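 active means replicate mean at 85% of control or lower, very high polarization wells dropped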;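 further: lower values mean more displacement of the GIV peptide from Galpha-i3; wells of about 15 µL received 100 nL stock; the first replicate is given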
Target sequence (P08753 whole entry, looked up): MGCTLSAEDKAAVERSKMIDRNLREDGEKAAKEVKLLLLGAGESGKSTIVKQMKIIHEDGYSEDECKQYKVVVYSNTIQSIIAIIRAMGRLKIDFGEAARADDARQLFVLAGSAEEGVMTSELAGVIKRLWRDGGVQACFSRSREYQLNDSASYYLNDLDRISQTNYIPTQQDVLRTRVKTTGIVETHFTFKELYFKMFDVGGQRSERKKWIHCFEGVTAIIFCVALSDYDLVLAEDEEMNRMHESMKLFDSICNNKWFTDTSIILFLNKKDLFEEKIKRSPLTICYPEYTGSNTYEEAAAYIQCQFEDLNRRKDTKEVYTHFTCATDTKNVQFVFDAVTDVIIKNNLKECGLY
Starred values were filed as active, the others as inactive. A portion of the library; count on the stated rates, not on these rows.

SMILES	GIV-Gai inh
Cc1ccc(C)c(NC(=O)N2CCN(Cc3cc(=O)n4nc(-c5ccccc5)sc4n3)CC2)c1	98
Cc1ccc(C)c(N2CCN(C(=O)c3cn(-c4cc(-c5noc(C)n5)ccc4C)nc3C)CC2)c1	91
O=C(Nc1c2c(nn1-c1ccc(F)cc1)CS(=O)(=O)C2)c1ccc(S(=O)(=O)N2CCOCC2)cc1	111
Cc1cccn2c(=O)c(/C=C3/SC(=S)N(Cc4ccco4)C3=O)c(N(C)Cc3ccccc3)nc12	135
CN(C)c1ccc(NC(=O)CSc2nc(N)c(C(=O)Nc3nccs3)s2)cc1	113
Cc1ccc2c(c1)Oc1cc(Cl)c(S(=O)(=O)N3CCOCC3)cc1C(=O)N2	103
COc1ccc(NC(=O)c2ccc3nn(CC(=O)Nc4ccc(OC)c(Cl)c4)c(=O)n3c2)cc1	104
COC(=O)C1C(=O)NC(SCC(=O)Nc2ccccc2C)=C(C#N)C1c1ccc(Cl)cc1Cl (centres undefined)	104
CCOC(=O)c1c(NC(=O)Cn2cnc([N+](=O)[O-])n2)sc2c1CCC(C)C2 (centres undefined)	108
CCOC(=O)c1cc2c(c(CSc3nc4ccccc4c(=O)n3CCc3ccc(S(N)(=O)=O)cc3)c1)OCOC2	115
O=C1C(=O)N(c2nccs2)C(c2ccc(F)cc2)/C1=C(\O)c1ccc([N+](=O)[O-])cc1 (centres undefined)	102
CCCCNC(=O)c1cnc2c(C)cccn2c1=O	104
CCOC(=O)c1nnn(-c2nonc2N)c1CN1CCN(C(c2ccccc2)c2ccccc2)CC1	107
COc1cccc2c1oc(=O)c1c(N)nc3c(c12)CCCC3	109
COc1cccc(NC(=O)CSc2nc3c(sc(=S)n3-c3ccccc3)c(=O)[nH]2)c1	110
CC(=O)N1c2ccccc2CCc2ccc([N+](=O)[O-])cc21	117
N#CC1=C([S-])N[C@@](O)(c2ccccc2)[C@H]([n+]2cccc3cc(Cl)ccc32)[C@H]1c1cccnc1	160
CCN(CC)S(=O)(=O)c1ccc2c(c1)cc(C(=O)N1CCN(c3cc(C)ccc3C)CC1)n2C	106
O=c1/c(=C\c2ccc(Br)cc2)sc2n1C(c1ccccc1)C(c1ccccc1)=NN=2 (centres undefined)	106
COc1ccc(C(=O)Oc2ccccc2NC2=NS(=O)(=O)c3ccccc32)cc1OC	104
Cc1oc2ccc(NS(=O)(=O)c3cc(Cl)ccc3Cl)cc2c1C(=O)OC(C)C	99
COc1ccc(CCNC(=O)c2nc(CCS(=O)(=O)c3ccccc3)no2)cc1OC	101
CC1=C(C(=O)N2CCOCC2)C(c2ccc(Cl)c([N+](=O)[O-])c2)C2=C(CC(C)(C)CC2=O)N1 (centres undefined)	95
COCc1cnc2c(c1SCC#N)c(=O)n(C)c(=O)n2C	105
CCSc1nc2ccc(NS(=O)(=O)c3ccc(F)c(Cl)c3)cc2s1	102

A portion of the results above, as a working copy:
SMILES	GIV-Gai inh
COC(=O)C1C(=O)NC(SCC(=O)Nc2ccccc2C)=C(C#N)C1c1ccc(Cl)cc1Cl (centres undefined)	104
CCOC(=O)c1c(NC(=O)Cn2cnc([N+](=O)[O-])n2)sc2c1CCC(C)C2 (centres undefined)	108

(next part)
SMILES	GIV-Gai inh
CCCCN1CCN(Cc2nc3nc(C)cc(N4CCN(C)CC4)n3n2)CC1	104
Cc1ccc(NC(=O)Nc2cccc(Cl)c2)cc1OCc1cc(=O)n2ccccc2n1	99
COc1ccc2c(c1)OC1(C)CC2/C(=C(\C)O)C(=O)N1 (centres undefined)	114
O=C(Cn1c(=O)c2cccnc2n(-c2ccccc2)c1=O)Nc1cc(F)ccc1F	103
Cc1cccc(C)c1NC(=O)C1(N(Cc2ccccc2)C(=O)COc2ccc(Cl)cc2Cl)CCC(C(C)(C)C)CC1 (centres undefined)	99
COc1ccccc1NC(=O)C1CCN(c2cc(=O)n(C)c(=O)n2C)CC1	101
Cc1ccc(C(=O)N2CCc3ccc(NC(=O)NCCc4ccccc4)cc32)cc1	110
CCN(CC)c1ccc2cc(-c3nnc(Nc4cc([N+](=O)[O-])ccc4F)s3)c(=O)oc2c1	123
COc1cc(OC)cc(C(=O)Nc2cc(C(=O)NCCC3=CCCCC3)ccc2N2CC3CC(C2)c2cccc(=O)n2C3)c1 (centres undefined)	106
COc1ccc(OC)c(-c2[nH]nc3c2C(c2cn[nH]c2-c2ccc(F)cc2)C(C#N)=C(N)O3)c1 (centres undefined)	104
CC1(C)c2ssc(=S)c2-c2ccccc2N1C(=O)CN1C(=O)c2ccccc2C1=O	105
CCCCOC(=O)CSc1nc(N)c(C#N)c(-c2ccccc2Cl)c1C#N	107
Cc1ccccc1S(=O)(=O)N1CCCC1c1cc(C(C)C)no1 (centres undefined)	105
COc1ccc(C2=Nc3ccccc3N=C(c3ccc(C)cc3O)C2)cc1	100
Cc1ccc(CNC(=O)c2nc(-c3oc4ccccc4c3C)no2)cc1	98
CCS(=O)(=O)c1nc2ccc(NS(=O)(=O)c3ccc(OC)c(OC)c3)cc2s1	107
c1cc2c(cc1-c1noc(C3CCC3)n1)nnn2CCN1CCCCC1	108
COc1cc(OC)cc(C(=O)N2CCN(C(=O)c3cc4cc(Br)ccc4[nH]3)CC2)c1	102
CC(C)(C)c1ccc(C(=O)N2CCN(Cc3cc(=O)n4nc(-c5ccccc5)sc4n3)CC2)cc1	101
O=C(Nc1ccc(Cl)cc1)N1CCCCCC1c1cccs1 (centres undefined)	105
O=C(O)c1ccc(Nc2nc(-c3ccc([N+](=O)[O-])cc3)nc3ccccc23)cc1	102
COc1ccc(C(=O)[C@@H]2[C@@H](c3ccccc3)C(C#N)(C#N)[C@H]3C=Cc4cc(Cl)ccc4N23)cc1	116
COc1ccccc1-n1c(CNC(=O)c2ccc(S(=O)(=O)N(C)C)cc2)nnc1SCC(=O)N1CCCc2ccccc21	118
Cc1c(N=Cc2ccc(O)c(Br)c2)c(=O)n(-c2ccccc2)n1C	101
O=C1/C(=C\c2ccc(F)cc2)C2=C(C(=O)N(c3ccccc3)C2c2ccc(Br)cc2)N1c1ccccc1 (centres undefined)	133
Carrying on:
SMILES	GIV-Gai inh
Cc1cc(C)c2c(n1)sc1c(=O)n(CC(=O)NCc3ccccc3)cnc12	99
Cc1ccc(C2OC3(C(=O)c4ccccc4C3=O)C3C(=O)N(c4cccc(C)c4C)C(=O)C23)cc1 (centres undefined)	107
COc1cccc(C(=O)NC(c2ccc([N+](=O)[O-])cc2)c2cc(Cl)c3cccnc3c2O)c1 (centres undefined)	101
COC(=O)C1=CN(C2CC2)c2cc(N3CCN(C(C)C)CC3)c(F)cc2S1(=O)=O	104
CSc1ccc(-c2nc(-c3ccc([N+](=O)[O-])cc3)c(-c3ccc(Oc4ccc(-c5nc(-c6ccc(SC)cc6)[nH]c5-c5ccc([N+](=O)[O-])cc5)cc4)cc3)[nH]2)cc1	110
CN1CCN(c2ccc(Nc3ccnc4ccccc34)cc2)CC1	112
O=[N+]([O-])c1ccc(Cl)c(S(=O)(=O)n2nnc3ccccc32)c1	102
CNS(=O)(=O)c1ccc2c3c(cccc13)C(=O)N2	108
CC1CCN(CCNC(=O)c2nc(-c3ccc(S(=O)(=O)N4CCCCC4)cc3)no2)CC1	105
CC1CCC(NS(=O)(=O)c2ccc3c(c2)NC(=O)C(CC(=O)N2CCCC2)CS3)CC1 (centres undefined)	101
COc1ccc(C(=O)Nc2ccc(-c3ccc4ccccc4n3)cc2)c(OC)c1	98
Cc1ccc(S(=O)(=O)c2cnc(N3CCC4(CC3)OCCO4)nc2N)cc1C	109
COc1ccc(-c2c(C(=O)NCc3ccccn3)nn3c(C)cc(C)nc23)cc1S(=O)(=O)N1CCCC1	96
CC(C)CNC(=O)N1CCN(Cc2nc3cccnc3n2-c2ccccc2)CC1	103
Cn1nnc2cc(-c3noc(Cc4ccc(Cl)cc4)n3)ccc21	103
C=CCNC(=O)C12CCC(C)(C(=O)O1)C2(C)C (centres undefined)	108
NS(=O)(=O)c1ccc(NC(=O)c2ccc(=O)n(Cc3cccc(Cl)c3)c2)cc1	103
CC(=O)n1c2c(c3ccccc31)OC(N)=C(C#N)C2c1cc(Br)ccc1F (centres undefined)	125
CCOC(=O)C1=NNC2(C)C(=O)N(c3ccc(Br)cc3)C(=O)C12 (centres undefined)	111
CCOC(=O)N1CCN(c2ncnc3c2c(-c2ccccc2)cn3-c2ccc(Cl)cc2)CC1	108
Cc1noc(C)c1C1CCCN1C(=O)c1cccc(F)c1 (centres undefined)	94
CCCCOc1ccc(NC(=O)C2OC3OC(C)(C)OC3C3OC(C)(C)OC23)cc1 (centres undefined)	102
CCn1cc(CN2CCC(C(=O)N3CCOCC3)CC2)c2cc(OC)ccc21	105
C=CCn1c2ccccc2c2n[nH]c(=S)nc21	108
CC(C)(C)c1ccc(C(=O)Nc2cc(C(=O)Nc3ccccc3F)ccc2N2CC3CC(C2)c2cccc(=O)n2C3)cc1 (centres undefined)	114

Sorted by length of the SMILES (high to low): some entries from above
SMILES	GIV-Gai inh
CC(C)(C)c1ccc(C(=O)Nc2cc(C(=O)Nc3ccccc3F)ccc2N2CC3CC(C2)c2cccc(=O)n2C3)cc1 (centres undefined)	114
NS(=O)(=O)c1ccc(NC(=O)c2ccc(=O)n(Cc3cccc(Cl)c3)c2)cc1	103
CCCCOc1ccc(NC(=O)C2OC3OC(C)(C)OC3C3OC(C)(C)OC23)cc1 (centres undefined)	102
Cc1ccc(S(=O)(=O)c2cnc(N3CCC4(CC3)OCCO4)nc2N)cc1C	109
C=CCn1c2ccccc2c2n[nH]c(=S)nc21	108

Going on with the list.
SMILES	GIV-Gai inh
CC(=O)C1=NN(c2ccc(Cl)cc2)C2(S1)c1ccccc1C(c1ccc(C)cc1)=NN2c1ccccc1 (centres undefined)	107
CCOc1cccc2c1OC(c1ccc(C(=O)OC)cc1)N1N=C(c3ccc(C)o3)CC21 (centres undefined)	97
Cc1ccccc1-c1noc(-c2nn(-c3cccc(F)c3)ccc2=O)n1	104
CCCc1ccc(S(=O)(=O)N2CCc3c(c(COCc4ccccc4)nn3C)C2)cc1	101
C[N+](C)(C)c1nc(N2CCOCC2)nc(N(c2ccccc2)c2ccccc2)n1	108
O=C(NCCN1CCCC1)c1cccc(-c2nc(-c3cccc(F)c3)no2)c1	103
CN1C(=O)c2ccc(NC(=O)CCc3nc(CSc4nc5ccccc5o4)no3)cc2C1=O	109
CCOC(=O)c1cc2c(N)c(C(=O)c3ccccc3)oc2nc1C	109
O=Cc1ccc(OC2OC(CO)C(O)C(O)C2O)cc1 (centres undefined)	99
CC(C)CNC(=O)N1CCCN(S(C)(=O)=O)CC1	103
NS(=O)(=O)c1ccc(CCn2c(SCc3cccc(Cl)c3)nc3ccccc3c2=O)cc1	108
CN1CCN(C(=O)C2CCN(c3ccc4cc(S(=O)(=O)N5CCCCC5)ccc4n3)CC2)CC1	100
O=C(C1CCN(c2ncccc2-c2nc(-c3ccccc3)no2)CC1)N1CCOCC1	101
COc1ccc(S(=O)(=O)NC2CCN(C(=O)CN3C(=O)COc4ccc(Cl)cc43)CC2)cc1	101
CCS(=O)(=O)N1CCCC1c1cc(C)on1 (centres undefined)	97
COc1ccc(-n2ccc(=O)c(-c3nc(-c4cccc(OC)c4OC)no3)n2)cc1	101
CCN(CC)C(=O)CSc1nc2ccccc2n1S(=O)(=O)c1ccccc1	110
COc1cc(NC(=O)c2sc3ncn(CC(=O)N4CCC(C)CC4)c(=O)c3c2C)cc(OC)c1OC	101
Cc1noc2ncnc(NCCN3CCCCC3C)c12 (centres undefined)	102
COc1ccc(OC)c(S(=O)(=O)NCC2(C)CCOCC2)c1	102
CCOc1ccc(S(=O)(=O)N2CCN(c3ccc([N+](=O)[O-])cc3)CC2)c2cccnc12	118
CC1(C)Cc2ccccc2/C(=C\C(=O)N2CCN(C(=O)/C=C3/NC(C)(C)Cc4ccccc43)CC2)N1	111
CCN1CCN(c2ccc([N+](=O)[O-])cc2C(=O)Nc2ccc(OC(F)(F)F)cc2)CC1	104
CCc1cc(Nc2ccc(F)cc2Cl)n2ncnc2n1	99
CC(=O)N1c2ccc(NC(=O)c3ccccc3)cc2C(C)(c2ccc(C)cc2)CC1(C)C (centres undefined)	101

Reformatted as labelled records: four of the compounds above
COc1ccc(OC)c(S(=O)(=O)NCC2(C)CCOCC2)c1
  GIV-Gai inh = 102
CCOC(=O)c1cc2c(N)c(C(=O)c3ccccc3)oc2nc1C
  GIV-Gai inh = 109
O=C(NCCN1CCCC1)c1cccc(-c2nc(-c3cccc(F)c3)no2)c1
  GIV-Gai inh = 103
CN1CCN(C(=O)C2CCN(c3ccc4cc(S(=O)(=O)N5CCCCC5)ccc4n3)CC2)CC1
  GIV-Gai inh = 100

Carrying on:
SMILES	GIV-Gai inh
CCOC(=O)C1=C(O)/C(=C/c2cccc(OC)c2)SC1=Nc1ccc([N+](=O)[O-])cc1	107
CCOCCOC(=O)COc1ccc2c(=O)c(Oc3cc(C)c(Cl)c(C)c3)coc2c1	113
CCS(=O)(=O)N1C[C@@H]2CN(S(=O)(=O)c3ccc(F)cc3)C[C@H](C1)O2	104
CCCCNC(=O)N(O)C1N(CCc2ccc(OC)c(OC)c2)C(=S)SC1(C)C (centres undefined)	105
COc1ccccc1N1CCN(C(=O)c2cc3n(n2)C(C(F)(F)F)CC(c2ccc4c(c2)OCO4)N3)CC1 (centres undefined)	104
Cc1nnc(-c2c(C)[nH]c(C)c2S(=O)(=O)NCc2ccco2)o1	105
COC(=O)c1cccc(N2C(=O)C3C4c5ccccc5C(c5ccccc54)C3C2=O)c1 (centres undefined)	105
CCOc1ccccc1C(=O)N1CCCC(C)(C(=O)NCc2ccccc2C)C1 (centres undefined)	103

Assay outcomes: PubChem BioAssay, ICCB-Longwood Screening Facility, Harvard Medical School
